D2 PAM: Beta-Arrestin HTS for Positive Allosteric Modulators of the Human D2 Dopamine Receptor: Potentiators | D(2) dopamine receptor (Homo sapiens), P14416 | DiscoveRx D2 beta-arrestin cells, luminescence, 90 min; 100% = 57 uM dopamine signal | potentiation, % (test concentration not listed) | 0.23% of 360,000 active; active = potentiation of 50% or more; inconclusive = 30% to 50%; inactive = 30% or less;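 note: compound concentration not given in the record; tested on top of an EC20 dose of dopamine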
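PathHunter beta-arrestin assay in DiscoveRx D2 cells. Compounds were added with an EC20 of dopamine (50 nM final) for 90 min at 37 deg C. Luminescence was read 1 h after detection reagent, with 57 uM dopamine as the EC100 control.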
D2 ag: Beta-Arrestin HTS for Positive Allosteric Modulators of the Human D2 Dopamine Receptor: Agonists; DiscoveRx PathHunter D2 beta-arrestin, luminescence, 90 min; 100% = 57 uM dopamine signal; activation, % (test concentration not listed); 0.084% of 360,000 active; in the data active = activation above about 40%; inconclusive = about 15% to 40%; inactive = below about 15%; note: compound concentration not given in the record; the text of the record calls up to 30% inactive
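Agonist mode: compounds alone added to overnight-plated D2 PathHunter cells for 90 min at 37 C, with 57 uM final dopamine (EC100) defining full response. Beta-arrestin recruitment detected by chemiluminescent reagent, read after 1 h at ambient temperature.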
Six1-Eya2 blk: qHTS Assay for Inhibitors of the Six1/Eya2 Interaction; Homeobox protein SIX1 (Homo sapiens) + Protein phosphatase EYA2 (Homo sapiens), …; AlphaScreen GST-Six1/His-Eya2 binding, biochemical; stronger effect = lower value; control for the full effect not named in the record; activity change, % (concentration not given with the values); 0.56% of 360,000 active; in the data active = activity change below about -65%; inconclusive = about -30% to -65%; inactive = above about -30%; note: % is set by controls: 0 for no effect and ±100 for the full control effect
Target sequence (O00167 whole entry, looked up): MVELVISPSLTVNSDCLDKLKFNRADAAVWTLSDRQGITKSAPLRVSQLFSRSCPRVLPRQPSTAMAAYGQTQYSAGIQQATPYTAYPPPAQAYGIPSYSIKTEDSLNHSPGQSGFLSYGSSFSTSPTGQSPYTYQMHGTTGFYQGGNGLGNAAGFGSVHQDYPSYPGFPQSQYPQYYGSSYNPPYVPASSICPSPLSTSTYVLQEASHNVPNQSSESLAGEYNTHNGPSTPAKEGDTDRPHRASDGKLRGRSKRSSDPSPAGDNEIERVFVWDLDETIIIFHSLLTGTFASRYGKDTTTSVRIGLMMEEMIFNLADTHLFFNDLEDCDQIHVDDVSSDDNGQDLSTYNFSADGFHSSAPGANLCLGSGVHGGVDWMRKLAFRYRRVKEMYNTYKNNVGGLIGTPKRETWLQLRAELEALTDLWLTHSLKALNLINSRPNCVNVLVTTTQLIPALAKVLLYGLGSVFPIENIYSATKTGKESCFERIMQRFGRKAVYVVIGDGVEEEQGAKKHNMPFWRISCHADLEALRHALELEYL
Target sequence (Q15475 whole entry, looked up): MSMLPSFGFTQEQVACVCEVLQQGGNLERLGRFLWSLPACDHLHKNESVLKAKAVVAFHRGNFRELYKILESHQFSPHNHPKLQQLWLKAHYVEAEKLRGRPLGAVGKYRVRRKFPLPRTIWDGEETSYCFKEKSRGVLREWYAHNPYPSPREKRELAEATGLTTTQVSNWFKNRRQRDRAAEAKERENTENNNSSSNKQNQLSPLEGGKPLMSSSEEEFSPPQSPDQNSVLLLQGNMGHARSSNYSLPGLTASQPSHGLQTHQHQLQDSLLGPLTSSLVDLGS
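Compounds are tested against tagged Six1 and Eya2 proteins bridged by glutathione donor and nickel acceptor beads; after a one-hour incubation at 37 °C without light, AlphaScreen emission is recorded.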
TRPV1 PAM: HTS Assay for Compounds that Act as Potentiators of the Vanilloid Receptor 1 | 0.02% of 320,000 active | TRPV1-expressing cells, Fluo-8 calcium influx, capsaicin EC20 potentiation; host cell line not named in the record; control for the full effect not named in the record | Transient receptor potential cation channel subfamily V member 1 (Homo sapiens), Q8NER1 | potentiation, % at 8.33 µM | AID 540277, 2011; active means potentiation above 80%; inconclusive means 30% to 80%; inactive means below 30%; note: 0% is about no effect
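Fluo-8 calcium influx in TRPV1-expressing cells, kinetic read (ex 480/em 520 nm). Compound added and read 3 min for agonist activity, followed by capsaicin at EC20 final and 2 min further read for enhancement.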
CtBP-E1A blk: qHTS Assay for Inhibitors of the CtBP/E1A Interaction; CtBP / adenovirus E1A interaction (AlphaScreen); AlphaScreen GST-E1A/His-CtBP binding, 1536-well; stronger effect = lower value; control for the full effect not named in the record; activity change, % (concentration not given with the values); 0.49% of 340,000 active; in the data active means activity change below about -65%; inconclusive means about -30% to -65%; inactive means above about -30%; note: % is set by controls: 0 for no effect and ±100 for the full control effect
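Steps: dispense buffer (Tris pH 8.0, NaCl 300 mM, TCEP 1 mM, BSA, Tween 20); add 5X protein mix (GST-E1A, His-CtBP, 125 nM each); pin 23 nL compound; 2 h at 37 °C, dark; add 5X beads (50 ug/mL); 1 h; read.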
Sfp PPTase inh: qHTS Assay for Inhibitors of Bacillus subtilis Sfp phosphopantetheinyl transferase (PPTase). Biochemical Sfp PPTase activity, qHTS. Potency, µM, inactives show max response, negative = inhibition, most hits filed as inhibitors. 3.5% of 310,000 active; active = well fitted inhibition curve with a large enough effect; inconclusive = small, poorly fitted or top-dose-only effect, or another doubt; inactive = no such curve, though single readings can be large or run the other way;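 note: the enzyme is Sfp with the accession as filed and its product quenches rhodamine fluorescence; potency is the fitted concentration of half-maximal effect; 0% = enzyme reaction without inhibitor and -100% = no enzyme wells; top concentration of the series not given in the record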
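Fluorescence-quenching assay: 15 nM Sfp-PPTase preincubated 15 min at room temperature with compound, then 5 uM rhodamine-CoA and 12.5 uM BHQ-2-labelled YbbR peptide added. Fluorescence (ex 525/em 598 nm) read at start and after 30 min; difference gives rate.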
PINK1 modulator: A Quantitative High throughput Screen to Identify Chemical Modulators of PINK1 Expression. 0.2% of 410,000 active. AID 624263, 2012. Potency, µM (doses to about 76.6 µM), without a hit: at the highest dose activation (PINK1 increase), hits mostly activators. PINK1 immunofluorescence, high-content cytometry, 24 h; active = well fitted activation curve with a large enough effect; inconclusive = small, poorly fitted or top-dose-only effect; inactive = flat fitted curve, though single readings scatter; cell line not stated here;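 note: potency is the fitted concentration of half-maximal effect; % of control where 0% means no effect; nearly all actives have a fitted effect of over 65% in size; a mitochondrial uncoupler was the plate control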
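Decision-based qHTS: stable cells, 24 h exposure to five compound concentrations, CCCP as control. Fixed cells stained for PINK1 plus nuclear, mitochondrial and cell markers, cytometer read.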
* hit, by the source's call; ? = inconclusive; · = no result given; [ ] = dose if it differs, or a comment.

SMILES	D2 PAM	D2 ag	Six1-Eya2 blk	TRPV1 PAM	CtBP-E1A blk	Sfp PPTase inh	PINK1 modulator
CCOC(=O)c1ccc(S(=O)(=O)N2CCN(Cc3cc4c(cc3O)OCO4)CC2)cc1	2	-0.8	-4	4	-10	·	-0.4%
COc1ccc(-c2ccc(C(=O)NCc3ccncc3)c3occc23)c(C)c1	-13	-0.9	-10	·	-5	·	0.8%
N#Cc1c(SCc2ccc(Cl)cc2)sc(C(=O)c2ccccc2)c1N	-16	-3.2	5	16	16	3%	1.8%
O=C(C1CCN(S(=O)(=O)c2ccc(Cl)c(C(F)(F)F)c2)CC1)N1CCC1	-1	5.4	7	-12	5	·	0.7%
O=C(c1ccc(-c2ccccc2)cc1)C1CCCN(C(=O)c2cncs2)C1 (stereo not given)	-8	-0.1	-11	4	20	-9%	-0.9%
Cc1ccc(NC(=O)CCc2ccc(S(=O)(=O)N3CCOCC3)cc2)c(Cl)c1	-1	0.3	0	·	-4	·	-0.7%
CN(Cc1c(F)cccc1Cl)C(=O)c1cccc(S(=O)(=O)NCc2ccccc2)c1	8	-0.3	-7	-15	5	·	0.0%
COc1ccc(-c2cc(-c3cccs3)c(C#N)c(SCC(=O)NCc3ccco3)n2)cc1	8	0.7	-1	-10	2	56µM*	2.9%
CC(C)c1ccc(-c2nnc(SCC(=O)NC3CC3)n2C)cc1	-7	-3.2	5	-5	6	18%	1.2%
COc1ccc(NC(=O)c2cc(-c3cc(Cl)ccc3OC)n[nH]2)cc1OC	-10	1.8	-8	·	-17	·	0.6%
Cc1ncc(CSc2nccc(=O)[nH]2)c(CO)c1O	-7	-6.6	0	8	·	13%	0.3%
O=C(Nc1cccnc1)c1ccccc1-c1ccccc1	1	-4.2	17	-7	1	14%	2.3%
C/C(CC(=O)N1CCN(C=O)CC1)=N\NC(=O)c1cccc([N+](=O)[O-])c1	1	-5.2	10	-5	0	-9%	0.2%
Cc1noc(C)c1CSc1ncnc2sc(C)c(C)c12	2	-3.5	-5	-6	0	-24%	8.9%
COc1ccc(OC)c(S(=O)(=O)NCC(c2ccco2)N2CCc3ccccc32)c1 (stereo not given)	-11	-0.9	-19	2	?	·	-0.7%
CCOc1ccc(NC(=S)N=Nc2c(O)[nH]c3ccccc23)cc1	-13	-4.4	?	-8	?	?	4.6%
COc1cccc(COc2ccc3c(C)cc(=O)oc3c2)c1	-5	-0.1	-2	1	6	-14%	-0.6%
O=C(NNC(=O)C12CC3CC(CC(C3)C1)C2)c1cccc([N+](=O)[O-])c1	-1	4.2	18	-2	5	17%	-0.6%
O=C(c1ccc(Cl)s1)N1CCN(c2ccccc2)CC1	-3	0.9	16	?	0	-11%	-0.7%
Cc1occc(=O)c1OC(=O)Nc1ccccc1	10	-4.1	4	1	4	-24%	0.0%
CC1=C(N2CCCCC2)CCC1=O	-8	-2.1	-2	·	6	·	-0.3%
COc1ccc(C2=NOC(C(=O)N(C)Cc3ccccc3)C2)cc1 (stereo not given)	-4	-1.7	4	-2	5	8%	5.1%
CCOc1cc(/C=C2\C(=N)N3N=C(C)SC3=NC2=O)ccc1OCCOc1ccccc1	1	0.8	-1	0	4	10%	0.6%
Cc1ccc(NC(=O)NC2CC(=O)N(c3ccc4c(c3)OCCO4)C2)cc1F (stereo not given)	-4	1.3	-6	4	-17	·	-1.6%
O=C(C1CCN(S(=O)(=O)c2ccccc2F)CC1)N1CCc2ccccc2C1	-2	5.3	8	-25	5	5%	2.0%

Structures from the list above that contain a cyano group (2):
SMILES	D2 PAM	D2 ag	Six1-Eya2 blk	TRPV1 PAM	CtBP-E1A blk	Sfp PPTase inh	PINK1 modulator
N#Cc1c(SCc2ccc(Cl)cc2)sc(C(=O)c2ccccc2)c1N	-16	-3.2	5	16	16	3%	1.8%
COc1ccc(-c2cc(-c3cccs3)c(C#N)c(SCC(=O)NCc3ccco3)n2)cc1	8	0.7	-1	-10	2	56µM*	2.9%

Later entries
SMILES	D2 PAM	D2 ag	Six1-Eya2 blk	TRPV1 PAM	CtBP-E1A blk	Sfp PPTase inh	PINK1 modulator
CCC(C)C1C(C#N)=C(N)Oc2n[nH]c(C)c21 (stereo not given)	-7	-1.3	-8	-1	2	7%	6.1%
O=C(N/N=C/c1c[nH]c2ccccc12)c1ccn(Cc2ccc(Cl)cc2Cl)n1	-12	-1.6	-17	23	-6	2%	-0.2%
O=C(CSc1nc2ccccc2c(=O)n1-c1ccccc1)NCc1ccco1	-1	-2.4	-3	4	-5	5%	7.4%
Cc1ccnc(-n2c(C)cc(/C=N/NC(=O)COc3cccc4cccnc34)c2C)c1	4	-13	-10	10	-7	19%	1.4%
CCC1(CC)Cc2ccccc2C(CC(=O)N2CCOCC2)=N1	-21	-2.8	-7	2	0	-14%	-5.8%[38.3 µM]
Cc1ccc([N+](=O)[O-])cc1NC(=O)c1ccccc1	-1	-3.8	-6	3	-2	4%	0.1%
COCC(=O)NC1CC(C)(C)Cc2c1cnn2-c1ccc(F)cc1 (stereo not given)	-21	-3.4	-1	4	·	14%	2.3%
Cc1ccc(C)c(OCC(=O)Nn2c(C)nc3ccccc3c2=O)c1	-11	-2.6	-14	1	-9	5%	-2.0%
CCN1CCN(C(c2ccc(F)cc2)c2nnnn2Cc2cccs2)CC1 (stereo not given)	-8	-3.0	26	-4	5	6%	-2.1%
O=C(NCc1ccccc1)c1nc[nH]c1C(=O)N1CCc2ccccc2C1	-13	0.9	-5	8	1	·	6.7%
CCOc1c2ccc(C(=O)NCCc3cccs3)cc2nn1CC	-16	-2.9	0	-4	3	-14%	1.6%
CN(Cc1cccc(Cl)c1Cl)c1ccc(S(=O)(=O)N2CCCCC2)cc1[N+](=O)[O-]	-13	-3.4	?	23	?	15%	-0.1%
COc1cc2[nH]c(=O)n3nc(-c4ccccc4)nc3c2cc1OC	-4	-3.6	-25	12	?	20%	4.7%
CCOC(=O)Cn1c(CN2CCN(c3cccc(Cl)c3)CC2)nc2c1c(=O)[nH]c(=O)n2C	-7	-3.7	5	-7	3	0%	4.9%
CSc1cc(-c2ccccc2)[nH]c(=O)c1C#N	-10	-5.6	-16	-4	·	25%	-0.7%
CCOc1ccccc1C(=O)Nc1c[nH]c(=O)[nH]c1=O	-3	-0.6	-2	0	-7	17%	-1.8%
O=C(COc1ncnc2ccccc12)NCCCN1CCCC1=O	-3	-2.3	3	-5	3	14%	-2.1%
COc1ccc(NC(=S)Nc2ccc3snnc3c2)cc1	2	4.0	?	0	3	-17%	29%
O=C(CCCc1c[nH]c2ccccc12)NCCc1c[nH]c2ccccc12	-2	-1.0	-17	-10	6	18%	4.4%
COc1ccc(N2C(=O)CC(N(CCc3ccc(S(N)(=O)=O)cc3)C(=S)Nc3ccccc3)C2=O)cc1 (stereo not given)	-12	-0.7	-1	27	-17	17%	?
CCOC(=O)c1c(C)oc2ccc(O)c(CN3CCCCC3)c12	-17	-0.4	0	-2	9	-4%	·
CCCCCCCCN1C(=O)[C@H](CC(=O)NCc2ccccc2)C[C@@]2(C(=O)OCC)CCCC=C12	·	·	-5	·	4	·	2.9%
COc1ccccc1-c1ccc2c(c1)C(C)(Cc1ccc(F)c(Cl)c1)C(=O)N2 (stereo not given)	0	-4.0	-5	·	9	·	-0.4%
CCc1noc(C)c1C(=O)Nc1nc(-c2ccc(OC)cc2)cs1	-4	3.6	-5	-11	-2	·	?
CC(C)(C)NC(=S)NNC(=O)[C@H]1C[C@@H]1c1ccccc1	-2	0.1	-10	1	4	23%	-0.6%

6 of the compounds above, comma-delimited.
SMILES,D2 PAM,D2 ag,Six1-Eya2 blk,TRPV1 PAM,CtBP-E1A blk,Sfp PPTase inh,PINK1 modulator
CC(C)c1ccc(-c2nnc(SCC(=O)NC3CC3)n2C)cc1,-7,-3.2,5,-5,6,18%,1.2%
COc1ccc(NC(=O)c2cc(-c3cc(Cl)ccc3OC)n[nH]2)cc1OC,-10,1.8,-8,·,-17,·,0.6%
Cc1ncc(CSc2nccc(=O)[nH]2)c(CO)c1O,-7,-6.6,0,8,·,13%,0.3%
O=C(Nc1cccnc1)c1ccccc1-c1ccccc1,1,-4.2,17,-7,1,14%,2.3%
C/C(CC(=O)N1CCN(C=O)CC1)=N\NC(=O)c1cccc([N+](=O)[O-])c1,1,-5.2,10,-5,0,-9%,0.2%
Cc1noc(C)c1CSc1ncnc2sc(C)c(C)c12,2,-3.5,-5,-6,0,-24%,8.9%

Carrying on:
SMILES	D2 PAM	D2 ag	Six1-Eya2 blk	TRPV1 PAM	CtBP-E1A blk	Sfp PPTase inh	PINK1 modulator
O=C(Nc1ccc2c(c1)OCCO2)c1ccc(CN2CCOCC2)cc1	-22	-1.3	-1	-18	0	6%	0.0%
CC1(C)CC2(CCO1)N1CC3(C)CN2CC(C)(C1)C3=O (stereo not given)	6	-5.7	10	·	-2	·	2.4%
CN1C[C@@H]2[C@@H]3C(=O)N(Cc4ccccc4)C(=O)[C@@H]3[C@](C)(C1=O)N2C(=O)c1ccc(F)cc1	-1	-0.7	2	·	5	·	-1.0%
CCN(CC)S(=O)(=O)c1cccc(C(=O)N/N=C/c2ccc(O)c(O)c2O)c1	?	14	-91*	5	-93*	-106%	-1.1%
COc1ccccc1C(=O)N/N=C/c1cnc2ccccc2n1	-6	-1.0	-5	-6	18	13%	-0.3%
C/C(=N\Nc1cccc([N+](=O)[O-])c1)c1ccccc1O	-13	-0.4	-12	4	-16	0%	0.2%
O=C1OCCC1(c1ccccc1)c1ccccc1	-7	-0.8	2	17	9	·	0.1%
CCc1ccc(/C=C(\C#N)C(=O)NC2CCS(=O)(=O)C2)cc1 (stereo not given)	-45	-1.8	14	·	-18	·	1.2%

Screens from PubChem BioAssay.

Compounds were not picked by outcome, and some 3.7% of all compounds hit somewhere here.
